Autofluor counter – compound fluorescence in toxin protease inhibitor counterscreen. compound autofluorescence counterscreen, microsphere flow cytometry; active compounds read high. fluorescence intensity (test concentration not listed). 360,000 tested, 3.1% active;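 active means at least 3 SD above the mean of all compounds, about 16000 in these data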;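 further: 100 nL of 1 mM stock went into each well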
An asterisk follows results filed as active. Not all compounds are listed. The share of hits here may be higher or lower than overall.

SMILES	Autofluor counter
CCCNC(=O)C1(C)CCCN(Cc2ccc(Cl)cc2)C1 (configuration not stated)	3496
CCNC(=O)C1(C)CCCN(C(=O)c2cc(C)n(C(C)(C)C)n2)C1 (configuration not stated)	3657
CC1=C(C(=O)N2CCCCCC2)CC(CC(=O)NCC2CCCCC2)C(=O)N1Cc1ccccc1 (configuration not stated)	6205
CCCCCC(=O)N1C[C@@H](O)[C@H](n2cc(COC(=O)c3ccccc3)nn2)C[C@@H]1c1ccc(OC)cc1	3471
OC(c1ccc(CN2CCCCC2)cc1)c1ncc(-c2ccccc2)[nH]1 (configuration not stated)	3644
CN1CCN(C(=O)C(=O)c2cn(CC(=O)N3CCCCCC3)c3ccccc23)CC1	4647
N#CC1C(=O)NC(=O)C(C#N)C12CCCc1sccc12 (configuration not stated)	3064
CC1(C(=O)NS(=O)(=O)c2cccc(C#N)c2)CCN1C(=O)c1cccc2ccccc12 (configuration not stated)	3650
NC(CCc1ccccc1)c1csc(NC(=O)NCCc2ccccc2)n1 (configuration not stated)	3018
CCc1nc2c(OCCc3cccc(OC)c3)cccn2c1N(C=O)Cc1ccccc1	3045
O=C(/C=C/[C@H]1O[C@@H](n2ccc(=O)[nH]c2=O)[C@H](O)[C@@H]1O)NCCN1CCOCC1	6331
OC[C@@H]1CN(Cc2cccnc2)C[C@H](n2cnc3c(N4CCN(c5ccccc5)CC4)ncnc32)O1	3545
CCCCn1nnnc1C(c1ccccc1)N1CCN(C(=O)C2CCCO2)CC1 (configuration not stated)	5749
CCc1nc2ccc(C(=O)N3CCN(C(=O)c4ccco4)CC3)cn2c1N(C)Cc1nccs1	2958
CCCCCCCCN1C(=O)[C@H](CC(=O)NCc2ccc(C)o2)C[C@@]2(C(=O)OC)CCCCC=C12	5530
COc1ccc([C@H]2C[C@H](O)[C@@H](n3cc(C4CC4)nn3)CN2CC2CCCCC2)cc1	2983
COC(=O)[C@]12CCCCC=C1N(CCC1=CCCCC1)C(=O)[C@H](CC(=O)N1CCCCC1)C2	6322
COC(=O)C[C@@H]1C[C@@H]2c3cc(NS(=O)(=O)c4ccccc4)ccc3O[C@@H]2[C@@H](CO)O1	3619
COc1ccccc1N(CC(=O)NCCSCc1ccccc1)S(=O)(=O)c1ccccc1	3894
CCCS(=O)(=O)NC(=O)C1(C)CCCN(C(=O)c2cccs2)C1 (configuration not stated)	3928
Cc1cccc(Cl)c1NC(=O)NCCCN1CCCCC1C (configuration not stated)	4370
COc1ccc(-c2cc(CNc3nc(NCc4ccccc4OC)nc4ccsc34)on2)cc1	3745
O=C(NCc1cccs1)c1ccc2sc([C@@H]3O[C@H](CO)[C@H](O)[C@H](O)[C@H]3O)nc2c1	3032
COc1ccccc1Cc1c(-c2ccc(C#N)cc2)nc2ccc(Br)cn12	8742
O=C(NCC1CC1)c1ccc2nc([C@@H]3O[C@H](CO)[C@H](O)[C@H](O)[C@H]3O)[nH]c2c1	2840
(more compounds)
SMILES	Autofluor counter
CCCCn1nnnc1C(c1cc2ccccc2o1)N1CCN(CC(=O)NC(C)C)CC1 (configuration not stated)	4324
COc1ccc(C(=O)N(C)[C@H]2C[C@H]3c4[nH]c5ccccc5c4CCN3C[C@H]2[C@H](C)O)cc1	6324
COCc1cccc(-c2csc(C(O)c3cccc(OC)c3)n2)c1 (configuration not stated)	3735
COc1cccc(NC(=S)NC(Cc2ccccc2)c2ccccc2)c1 (configuration not stated)	3926
CC1C(=O)CC2C3(C)CCC2(C(C)C(=O)O)C(=O)C13 (configuration not stated)	5561
COCCCN1C(=O)C(CC(=O)NC(c2ccccc2)c2ccccc2)CC(C(=O)N2CCCCCC2)=C1C (configuration not stated)	5587
COc1ccc(C(C)(O)c2nc(-c3cccc(O)c3)cs2)cc1 (configuration not stated)	2898
COc1ccc(NC(=O)c2cccc3c(-c4cnn(C)c4)coc23)cc1	3930
CC(=O)Nc1ccc(C(=O)N2CCCCC2c2cc(C(=O)Nc3cccc4c3CCCC4)no2)cc1 (configuration not stated)	3447
CCC(c1nnnn1-c1ccc2c(c1)OCCO2)N1CCN(c2ccccc2OC)CC1 (configuration not stated)	4342
Cc1ccc(-c2cnc(C(O)c3cc(C)cc(C)c3)[nH]2)cc1 (configuration not stated)	2850
O=C1c2ccccc2C(c2nnnn2Cc2ccccc2)N1CCc1ccc(O)cc1 (configuration not stated)	5691
COc1cc(C(=O)N2CCCCC2c2cc(C(=O)N3CCOCC3)no2)cc(OC)c1C (configuration not stated)	3535
CNc1cncc(-c2ccc(OC)cc2OC)n1	2907
COc1ccc(NC(=O)C[C@H]2C(=O)N(C3CCCCC3)C[C@@H]2c2ccccc2)cc1	3404
C[C@]12CC[C@@H](O)C[C@@H]1CC[C@@H]1[C@@H]2CC[C@]2(C)C(=O)[C@H](O)C[C@@H]12	3435
Cc1cc2oc(=O)cc(CN3CCCC3)c2cc1C	6308
CC1(C(=O)O)CCN1C(=O)c1cccc(C(F)(F)F)c1 (configuration not stated)	3996
Cc1cccc(NC(=O)c2nc[nH]c2C(=O)Nc2ccccc2F)c1	3577
COc1cccc(Nc2nc(C(N)Cc3ccc(C(F)(F)F)cc3)cs2)n1 (configuration not stated)	2916
COc1ccc(N(CC(=O)NCc2cccs2)S(=O)(=O)c2ccc(C(C)=O)cc2)cc1	3069
COc1ccccc1NC(=O)COC(=O)c1c(NC(C)=O)sc(C)c1C	4061
CCNC(=O)C1(C)CCN(Cc2cccc(C(F)(F)F)c2)C1 (configuration not stated)	3552
CCOC(=O)C1=C[C@@H](C(C)C)N(S(=O)(=O)c2ccc(C)cc2)[C@H]1c1ccccc1F	6433
CCCCN(C)c1c(C)nc2ccc(C(=O)NCc3ccc(OC)cc3)cn12	3806

Reprinted from the part before: two entries; new compounds follow.
SMILES	Autofluor counter
CCOC(=O)C1=C[C@@H](C(C)C)N(S(=O)(=O)c2ccc(C)cc2)[C@H]1c1ccccc1F	6433
CCCCN(C)c1c(C)nc2ccc(C(=O)NCc3ccc(OC)cc3)cn12	3806
CC(C)C[C@H]1CN([C@@H](Cc2ccccc2)CN2CCC[C@@H]2CN2C(=O)C(=O)NC[C@@H]2Cc2ccc(O)cc2)C(=O)C(=O)N1CC1CCCCCC1	6231
CC1=C(C(=O)N(C)C)CC(CC(=O)NC2CCCC2)C(=O)N1CCCN1CCCC1=O (configuration not stated)	2852
CC(=O)N1CCc2cc(NC(=O)C3(C)CCN3Cc3ccccc3Cl)ccc21 (configuration not stated)	3370
CCOc1ccc(CNC(=O)C2CCN(S(=O)(=O)N3CCC(C)CC3)CC2)cc1OC	3959
O=C(NC(c1ccccc1)c1ccc2ccccc2n1)C1CCN(CCOc2ccc(Cl)cc2Cl)CC1 (configuration not stated)	4001
CCC(C)C(CO)NCCCn1cnc2c(OC)ncnc21 (configuration not stated)	3911
COC(=O)c1cc(=O)nc(NN=Cc2ccc(C)cc2)s1	6170
CC1CCN(C(=O)COC(=O)c2cccc(S(=O)(=O)N3CCOCC3)c2)CC1	3922
COc1cc(C=CC(=O)N2CCN(CC(=O)N3CCCC3)CC2)cc(OC)c1OC	3912
OCC1OC(Nc2ccccc2C=NO)C(O)C1O (configuration not stated)	2943
CCc1nc2c(OCCOc3ccc(F)cc3)cccn2c1N(C)C(=O)CC(C)C	2883
COc1ccc(C(NC(=O)C2CCN(Cc3ccc(Oc4ccccc4)cc3)CC2)c2ccccc2C)cn1 (configuration not stated)	3611
O=C(c1[nH]c(C(F)(F)F)nc1-c1ccccc1)N1CCC(Cc2ccccc2)CC1	6001
COc1ccc(C(=O)Nc2ccc3c(c2)OCO3)cc1S(=O)(=O)N1CCOCC1	3767
CC(C)N(C)c1ncnc2c1ncn2[C@H]1CN(Cc2ccc(-c3ccccc3)cc2)C[C@@H](CO)O1	3902
CC(=O)N1CC2(CC(c3ccccc3C(F)(F)F)=NO2)CN1c1ccc(Cl)cc1 (configuration not stated)	3660
COCCNC(=O)c1cc2c(c(-c3cccc(C#Cc4ccc(OC)c(OC)c4)c3)n1)[C@H](CCO)N(S(=O)C(C)(C)C)C2 (some centres not stated)	5884
O=C(Nc1ccc2c(c1)OCCO2)C1c2ccccc2OCC(=O)N1CCc1c[nH]c2ccccc12 (configuration not stated)	5365
CC(=O)c1ccc2c(c1)N(Cc1ccccc1)C(=O)C(C)S2 (configuration not stated)	3743
COc1ccc(-c2coc3c(C(=O)Nc4cccc(NS(C)(=O)=O)c4)cccc23)c(C)c1	2939
O=C(Nc1ccc(F)c(Cl)c1)[C@@H]1O[C@H](CO)[C@H](O)[C@H](O)[C@H]1O	3658
CCCCN1C(=O)C(CC(=O)NCCCN(C)C)CC(C(=O)N(C(C)C)C(C)C)=C1C (configuration not stated)	6145
CC(=O)c1ccc(-c2cnc3c(NC=O)cc(-c4cnn(C)c4)cn23)cc1	3025
Cc1cn([C@H]2C[C@H](O)[C@@H](CNC(=O)c3ccccn3)O2)c(=O)[nH]c1=O	4008
COc1ccc(C(=O)Nc2nc(C)cs2)cc1S(=O)(=O)N1CCOCC1	3730
Next section
SMILES	Autofluor counter
COc1ccc(NC(=O)c2ccc(-c3ccc(F)cc3)o2)cc1OC	3535
CCCNC(=O)c1cc(C2CCCCN2C(=O)c2cccs2)on1 (configuration not stated)	3843
Cc1ccc2nc(SCC(=O)N3N=C(c4cccs4)CC3c3ccc(F)cc3)nc(=O)n2c1 (configuration not stated)	2971
COCCNC(=O)c1ccc(-c2ccc(OC)cc2C)c2ccoc12	3519
COc1ccc(CN2CCC(C)(Oc3ccc(C(C)=O)cc3)C2)c2ccccc12 (configuration not stated)	3290
O=C(NC1CCCC1)C1c2ccccc2OCC(=O)N1CCc1ccccc1 (configuration not stated)	5908
O=C1[C@H]2[C@@H](c3ccc(C(F)(F)F)cc3)N[C@]3(CCCN(Cc4ccc(C(F)(F)F)cc4)C3=O)[C@H]2C(=O)N1Cc1ccccc1	3405
CCOC(=O)N1CCN(C(c2cc3ccccc3o2)c2nnnn2C(C)(C)C)CC1 (configuration not stated)	5797
Cc1cc(Cl)ccc1C(O)c1ncc(-c2ccc(Cl)cc2)[nH]1 (configuration not stated)	2878
COc1cccc(-c2cnc3c(NC(C)=O)cc(-c4cccc(C(=O)NCCO)c4)cn23)c1	3652
CC1(C(=O)NS(=O)(=O)c2cccc(F)c2)CCN1C(=O)CC1CCCC1 (configuration not stated)	3768
COc1ccccc1-c1noc2c1C(=O)N(Cc1cn(-c3ccc(Cl)cc3)nn1)CC2	5244
COc1ccc(-c2cnc3c(c2)C(=O)N([C@H](C)CO)C[C@@H](C)[C@@H](CN(C)C(=O)NC2CCCC2)O3)cc1	3478
CCc1ccc(OC2(C)CCN(Cc3ccc(SC)cc3)C2)cc1 (configuration not stated)	4178
CC1(Cc2ccc(S(C)(=O)=O)cc2)C(=O)Nc2ccc(Cl)cc21 (configuration not stated)	3385
O=S1(=O)CCN(CCc2ccccc2)CC1	4400
COc1cccc(-c2cnc3c(NC=O)cc(-c4cccc(C(=O)N(C)C)c4)cn23)c1	3171
CCOC(=O)[C@]12CCCC=C1N(Cc1cccc3ccccc13)C(=O)[C@H](CC(=O)N1CCN(C(=O)c3ccco3)CC1)C2	5792
CCc1nnc(NC(=O)c2ccco2)s1	3930
CCOC(=O)C1(C)CCCN(C(=O)c2ccc3snnc3c2)C1 (configuration not stated)	3804
CCN(Cc1ccccc1)c1cc2c(c3c1ccn3C)C1CCC2C1 (configuration not stated)	4233
C[C@@H]1CN([C@@H](C)CO)C(=O)CCCn2nncc2CO[C@@H]1CN(C)C(=O)Nc1ccnc(N2CCOCC2)c1	3775
CCCCCN(C(=O)CCC(=O)OC(C)C(=O)Nc1ccccc1C)c1c(N)n(CCCC)c(=O)[nH]c1=O (configuration not stated)	2881
COc1cccc(OC)c1C(=O)N1CCN(Cc2ccccc2F)CC1	2943
Cc1cccc(C)c1-n1nnnc1C(c1ccccc1)N1CCN(C/C=C/c2ccccc2)CC1 (configuration not stated)	5581
Other compounds
SMILES	Autofluor counter
O=C1NC[C@H](Cc2ccccc2)N(C[C@@H]2CCCN2C[C@H](Cc2ccc(O)cc2)N2C[C@H](Cc3ccc(O)cc3)N(CC3CCCCC3)C(=O)C2=O)C1=O	6503
Cc1ccc([C@H]2C[C@@H](O)[C@H](n3cc(-c4ccc(F)cc4)nn3)CN2Cc2cccs2)cc1	3932
O=C(CNc1ccc(C(F)(F)F)cc1)Nc1cccc(S(=O)(=O)N2CCCCC2)c1	3864
Cc1cccc(C(=O)C(O)(c2ccccc2)C2CCCCC2=O)c1 (configuration not stated)	3909
O=C(Nc1ccccc1N1CCOCC1)[C@@H]1O[C@H](CO)[C@H](O)[C@H](O)[C@H]1O	3910
O=C(CC[C@H]1O[C@@H](n2ccc(=O)[nH]c2=O)[C@H](O)[C@@H]1O)N1CCN(c2ccccn2)CC1	4519
O=C(COC(=O)c1cc(F)c(F)cc1Cl)NC1CCCCCC1	4115
COc1ccc(C(N)c2csc(Nc3ccc(C(=O)NCCCO)cn3)n2)cc1 (configuration not stated)	2772
COCCNc1ncnc2c1ncn2[C@H]1CN(Cc2ccncc2)C[C@@H](CO)O1	2902

Molecules shown so far with an NH in an aromatic ring:
SMILES	Autofluor counter
OC(c1ccc(CN2CCCCC2)cc1)c1ncc(-c2ccccc2)[nH]1 (configuration not stated)	3644
O=C(/C=C/[C@H]1O[C@@H](n2ccc(=O)[nH]c2=O)[C@H](O)[C@@H]1O)NCCN1CCOCC1	6331
O=C(NCC1CC1)c1ccc2nc([C@@H]3O[C@H](CO)[C@H](O)[C@H](O)[C@H]3O)[nH]c2c1	2840
COc1ccc(C(=O)N(C)[C@H]2C[C@H]3c4[nH]c5ccccc5c4CCN3C[C@H]2[C@H](C)O)cc1	6324
Cc1ccc(-c2cnc(C(O)c3cc(C)cc(C)c3)[nH]2)cc1 (configuration not stated)	2850
Cc1cccc(NC(=O)c2nc[nH]c2C(=O)Nc2ccccc2F)c1	3577
O=C(c1[nH]c(C(F)(F)F)nc1-c1ccccc1)N1CCC(Cc2ccccc2)CC1	6001
O=C(Nc1ccc2c(c1)OCCO2)C1c2ccccc2OCC(=O)N1CCc1c[nH]c2ccccc12 (configuration not stated)	5365
Cc1cn([C@H]2C[C@H](O)[C@@H](CNC(=O)c3ccccn3)O2)c(=O)[nH]c1=O	4008
Cc1cc(Cl)ccc1C(O)c1ncc(-c2ccc(Cl)cc2)[nH]1 (configuration not stated)	2878
CCCCCN(C(=O)CCC(=O)OC(C)C(=O)Nc1ccccc1C)c1c(N)n(CCCC)c(=O)[nH]c1=O (configuration not stated)	2881
O=C(CC[C@H]1O[C@@H](n2ccc(=O)[nH]c2=O)[C@H](O)[C@@H]1O)N1CCN(c2ccccn2)CC1	4519

High-throughput results as filed in PubChem.
